From PubChem BioAssay
SmPrx2 inh: blocks S. mansoni peroxiredoxin 2 enzymatic activity | S. mansoni Prx2 activity coupled to TGR/GSH (TGR is thioredoxin glutathione reductase), NADPH fluorescence loss, qHTS; some inactives read as strong as hits | Potency, µM | 65,000 compounds, 0.07% hits; active means full or partial inhibition curve with a strong effect at the top dose; inconclusive means weaker partial or single-point curve; inactive means no accepted curve; note: series up to 57 µM; many of its hits are not listed in these tables
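Purified S. mansoni TGR and Prx2 in pH 7.4 phosphate buffer with EDTA and Tween-20 were preincubated with compounds for 15 min. Further NADPH/GSH was added, then a 2.5 mM H2O2 aliquot initiated turnover, followed kinetically by NADPH fluorescence.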
Anthrax LT inh: anthrax lethal toxin internalization inhibition; Cells, anthrax lethal toxin internalization, FRET ratio (460/530); Potency, µM (top dose mostly 40 µM), without a hit: top-dose activity change, negative = inhibition, usual class: inhibitors; 70,000 compounds, 0.67% hits; active = well fitted falling ratio curve with the 530 nm signal flat; inconclusive = other ratio curves, or a change in one channel alone; inactive = flat curves in the ratio and both channels; the % refers to the ratio; note: % is set by controls: 0 for no effect and ±100 for the full control effect; nearly all actives have a fitted effect of over 50% in size; tested in ME-180 cells; beta-lactamase reporter
* = called active by the depositor; ? = inconclusive; / = no result given; & = joins results of further samples; [ ] = another dose, or the depositor's remark. Potency is the fitted concentration of half-maximal effect.

| compound | SmPrx2 inh | Anthrax LT inh |
| --- | --- | --- |
| CN1C(=O)NC(NC(=O)c2ccncc2)(C(F)(F)F)C1=O (stereo not given) | >57 | -2.4% |
| CCCN1C(=O)SC(CC(=O)Nc2ccc(Br)cc2)C1=O (stereo not given) | >57 | 3.0% |
| CCOC(=O)c1cc(-c2ccc(Cl)s2)nc2c1c(C)nn2C | >57 | 2.6% |
| O=C1NCCN1C(=O)c1ccccc1F | >57 | / |
| O=C(NCc1ccccc1)C1CCCN(S(=O)(=O)c2cccnc2)C1 (stereo not given) | >57 | -5.6% |
| CCC(=O)Nc1cccc(Br)c1 | / | -1.8% |
| Cc1c(C#N)c2ncn(Cc3ccccc3)c(=O)c2n1-c1ccccc1 | / | -9.5% |
| Cc1ccc(C)c(-n2nnnc2SCC(=O)NCCC2=CCCCC2)c1 | >57 | 1.1% |
| COc1ccccc1N(CC(=O)NC1CCCCC1)C(=O)c1cnn(C(C)C)c1 | >57 | -7.2% |
| Cc1cc(S(=O)(=O)n2cnc3ccccc32)c(C)cc1Cl | >57 | -13.9% |
| O=C(/C=C/c1ccccc1)N1CCCC1CO (stereo not given) | / | -6.9%[8 µM] |
| Cc1cc(N2CCN(C3CCCCC3)CC2)n2nc(C)nc2n1 | >57 | 4.4% |
| CCCc1nc(NCc2ccncc2)c2nnn(Cc3ccccc3F)c2n1 | >57 | -6.3% |
| O=C(CN1CCC(n2nnc3cc(F)ccc32)CC1)NC1CC1 | >57 | -7.8% |
| Cc1noc(C)c1S(=O)(=O)N1CCCC(C(=O)NCC2CCCO2)C1 (stereo not given) | >57 | -11.1% |
| Cc1c(C(=O)N2CCc3ccccc32)oc2c1C(=O)CC(C)(C)C2 | >57 | / |
| Cc1ccc(CSc2nc3c(c(=O)[nH]2)C(c2ccncc2)C2=C(CCCC2=O)N3)cc1 (stereo not given) | >57 | ? |
| COCC(C)NC(=O)COc1ccc(Cl)cc1Cl (stereo not given) | >57 | ? |
| CC(=O)c1nn(-c2cccc(Cl)c2)cc1C(=O)c1ccco1 | >57 | 5.4% |
| Cc1ccccc1Cn1cnc2c(cnn2C(C)(C)C)c1=O | >57 | -7.4% |
| CC(C)Cn1c(SCC(=O)c2ccc(Cl)s2)nnc1-c1ccco1 | >57 | -6.3% |
| CCOC(=O)c1ccc(NC(=O)Cn2nnc(-c3ccc(F)cc3)n2)cc1 | >57 | 8.7% |
| CN1CCN(C(=O)c2ccc(C(C)(C)C)cc2)CC1 | >57 | 3.5% |
| COc1cc(C(=O)N2CCC(C(=O)Nc3cccc(C(C)=O)c3)CC2)cc(OC)c1OC | / | -12.9% |
| CC1=NN=C(c2ccc(N)cc2)c2cc3c(cc2C1)OCO3 | ? | 9.3%&0.2% |
| CC(=O)Nc1cc2ccc(OC(C)=O)cc2oc1=O | >57 | ? |
| O=C1N(CC(=O)N2CCc3ccccc32)CCN1Cc1ccccc1Cl | >57 | -14.3% |
| CCOc1ccc2nc(NS(=O)(=O)c3ccc(NC(C)=O)cc3)sc2c1 | >57 | -3.0% |
| Cc1nc(C)n(CC(O)COc2ccc(C(=O)c3ccccc3)cc2)n1 (stereo not given) | >57 | -7.5% |
| COc1ccc(N2CSC3=C(C#N)C(c4cccc(OC)c4OC)CC(=O)N3C2)cc1 (stereo not given) | >57 | -11.7% |
| COc1ccc(S(=O)(=O)Nc2ccccn2)c(C)c1C | >57 | -12.2% |
| CCn1c(SCC(=O)N2CCCC2)nc2ccccc2c1=O | >57 | -2.3% |
| COc1ccc(-c2csc(N(CCCN3CCOCC3)C(=O)c3ccco3)n2)cc1 | >57 | ? |
| CCCCn1c(SCC(=O)c2ccccc2)nc2c1c(=O)[nH]c(=O)n2C | >57 | 1.0% |
| Cl.Cl.Cl.Cl.Cl.Cl.N.N.N.N.NNNNN.NNNNN.O.O.[Ru].[Ru].[Ru] | >57 | -5.6% |
| COc1ccc(N2CC(C(=O)Nc3ccccc3C(=O)NCc3ccco3)CC2=O)cc1 (stereo not given) | >57 | -4.4% |
| O=C(NC1CCC(NC(=O)C2CCCO2)CC1)C1CCCO1 (stereo not given) | >57 | -10.8% |
| Cc1cc(=O)[nH]c(SCc2cccc(Br)c2)n1 | >57 | ? |
| CC(C)(C)OC(=O)c1c(N)n(CCCN2CCCC2=O)c2nc3ccccc3nc12 | >57 | ? |
| O=S(=O)(NCCOCC(F)(F)F)c1ccc2oc3ccccc3c2c1 | >57 | -1.1% |
| COC(=O)[C@H]1C[C@@H]1[C@H](NC(=O)c1cnccn1)c1ccccc1 | >57 | ? |
| c1ccc(-n2nnnc2Oc2ccc(-c3nnco3)cc2)cc1 | >57 | 8.2% |
| COc1ccccc1OCCC(=O)OCC(=O)Nc1ncc(Cl)cc1Cl | >57 | 0.3% |
| O=C(CSCCO)N1CCc2ccccc21 | >57 | -1.1% |
| CCCCCCC(=O)N1CCC(c2nc3c(nnn3Cc3ccccc3Cl)c(=O)[nH]2)CC1 | >57 | ? |
| CC(=O)c1cccc(NC(=O)c2cc3nc(C)cc(C)n3n2)c1 | / | -4.2% |
| Cc1ccccc1Nc1nc(N)nc(CSc2nc3ccccc3c(=O)n2CCCO)n1 | >57 | -9.2% |
| c1csc(Cc2nn3c(-c4n[nH]c5c4CCC5)nnc3s2)c1 | >57 | ? |
| N#CCSc1nc2cc(C(=O)N3CCCC3)ccc2c(=O)n1Cc1ccccc1 | >57 | 3.0% |
| O=[N+]([O-])c1ccc2ncccc2c1CCc1c([N+](=O)[O-])ccc2ncccc12 | >57 | -2.4%[8 µM] |
| CSc1ccc2c(c1)N(CC[C@H]1CCCCN1C)c1ccccc1S2 | >57&>25.6 | 10µM* |
| Cc1cc(N2CCC(C)CC2)n2nc(C)c(-c3ccccc3)c2n1 | >57 | -7.5% |
| COC(=O)C(NC(=O)c1ccccc1)c1ccccc1 (stereo not given) | / | 0.5% |
| CN[C@@H]1C[C@@H](c2ccc(Cl)c(Cl)c2)c2ccccc21 | >57 | ? |
| COC(=O)c1cc2sccc2n1CC(=O)Nc1cccc(SC)c1 | >57 | ? |
| Cc1ccc(C)c(Nc2ncnc3nc[nH]c23)c1 | >57 | -17.2% |
| CCCc1nc2c3cnn(-c4cccc(Cl)c4)c3ncn2n1 | >57 | ? |
| Cc1nc2ccc(C(=O)N3CCN(c4ccccn4)CC3)cc2s1 | >57 | 1.7% |
| CCNc1ccc(C(=O)OCC)cc1NC(=O)c1cccc(N(C)C)c1 | >57 | ? |
| CCCCC(=O)N(c1ccc(OCC)cc1)C1C=CS(=O)(=O)C1 (stereo not given) | >57 | 6.0% |

Among those listed so far, 2 have a CF3 group.
| compound | SmPrx2 inh | Anthrax LT inh |
| --- | --- | --- |
| CN1C(=O)NC(NC(=O)c2ccncc2)(C(F)(F)F)C1=O (stereo not given) | >57 | -2.4% |
| O=S(=O)(NCCOCC(F)(F)F)c1ccc2oc3ccccc3c2c1 | >57 | -1.1% |

Later entries:
| compound | SmPrx2 inh | Anthrax LT inh |
| --- | --- | --- |
| Cc1ccc(F)cc1NC(=O)C1CCCN(c2ncccn2)C1 (stereo not given) | >57 | -5.2% |
| N#Cc1cccc(-c2ccc3ncnc(NCCN4CCOCC4)c3c2)c1 | >57 | -21.2% |
| Cc1c(C(=O)N2CCN(C(=O)c3ccco3)CC2)sc2nc(-c3ccc(F)cc3)cn12 | >57 | -14.9% |
| Cc1cccc(CN2CCN([C@@H](c3ccccc3)c3ccc(Cl)cc3)CC2)c1 | >57 | 11.9%[3.58 µM] |
| O=c1c2ccccc2c(C=NC2CCS(=O)(=O)C2)c(O)n1-c1ccccc1 (stereo not given) | >57 | 0.1% |
| Cc1cccc(-c2noc(CN(C(=O)c3ccc4c(c3)OCO4)C(C)C)n2)c1 | >57 | -21.9% |
| CSc1nnc(Cc2ccc3c(c2)OCO3)o1 | >57 | 14.0% |
| CCN(CC)c1ccc(NC(=O)c2ccccc2F)cc1 | >57 | -23.2% |
| COc1cccc(OCCCN2CCCCC2)c1 | >57 | 3.3% |
| CC(c1ccccc1)n1c(-c2ccncc2)n[nH]c1=S (stereo not given) | >57 | -14.0% |
| OC[C@@H]1O[C@@H](n2cnc3c(NCc4ccco4)ncnc32)[C@H](O)[C@H]1O | >57 | ? |
| CCc1nc(SCC(=O)NCC2CCCO2)c2oc3ccccc3c2n1 (stereo not given) | >57 | 1.0% |
| O=C(c1ccc2c(c1)N(Cc1ccccc1)C(=O)CS2)N1CCOCC1 | >57 | 16.4% |
| CC1CCN(C(=O)c2cc(-c3ccc(Cl)c(Cl)c3)on2)CC1 | >57 | -5.0% |
| CCOC(=O)c1c(C)[nH]c(C(=O)C(C)OC(=O)c2cccc(OCc3c(C)noc3C)c2)c1C (stereo not given) | >57 | -3.1% |
| Cc1cc(NC(=O)c2ccc3c(c2)C(=O)N(Cc2cccnc2)C3=O)no1 | >57 | -5.2% |
| O=S(=O)(NCC1CCCO1)c1cc(Cl)ccc1Br (stereo not given) | / | -15.4% |
| CCn1c(SCC(=O)N(Cc2ccccc2)C2CCS(=O)(=O)C2)nc2ccccc2c1=O (stereo not given) | >57 | 19.4% |
| CC(=O)c1c(C)nc2cc(Cl)ccc2c1N | >57 | 10.0% |
| COc1ccc(OC)c(S(=O)(=O)N2CCC(C(=O)NCC3CCCO3)CC2)c1 (stereo not given) | >57 | 9.6% |
| NS(=O)(=O)c1cc(Br)c(N=Nc2ccc(O)c3ncccc23)c(Br)c1 | >57 | -2.0%[8 µM] |
| COc1cc2c(cc1OC)C1=C(C#N)COCN1CC2 | >57 | -4.6% |
| Cc1ccc(C)c(NC(=O)CSc2nnc([C@@H](N)Cc3c[nH]c4ccccc34)o2)c1 | >57 | -10.1% |
| CC(C)(C)c1csc(NC(=O)Cn2cnc3ccccc3c2=O)n1 | >57 | 5.4% |
| CC1=C(C#N)C(NC(=O)C2CC2)(C(F)(F)F)C(=O)N1 (stereo not given) | >57 | 14.7% |
| COC(=O)[C@@]1(Cc2ccccc2)[C@H]2c3cc(C(=O)N4CCCC4)n(CCSCCO)c3C[C@H]2CN1C(=O)c1ccccc1 | >57 | 8.6% |
| O=C1Nc2ccccc2C(O)(C(=O)NCc2ccco2)N1c1ccc(Cl)cc1 (stereo not given) | >57 | ? |
| Cc1nc2c(C(=O)N3CCCC3)c[nH]n2c(=O)c1Cc1ccc(F)cc1Cl | >57 | 11.8% |
| CC(C)c1[nH]nc2c1C(Cc1ccccc1)C(C#N)=C(N)O2 (stereo not given) | >57 | ? |
| c1ccc([C@H]2NCCc3c2[nH]c2ccccc32)cc1 | / | -3.7%[8 µM] |
| CC(C)(C)S(=O)(=O)c1c(C(=O)O)cccc1C(=O)O | >57 | -9.8% |
| C#CCOC(=O)c1ccccc1C(=O)N(CC)CC | >57 | 4.1% |
| CNC(=O)[C@H](C)[C@@H]1C[C@@]1(C)[C@@H](NC(=O)OCc1ccccc1)c1ccccc1 | >57 | -8.1% |
| CCN=C1SCC(=O)N1c1ccc(OC)cc1 | >57 | -3.2% |
| CC(C)CCNC(=O)NC(=O)CSc1nnc2ccccn12 | >57 | ? |
| O=C(NC(=O)N1CCN(c2cccc(Cl)c2)CC1)c1ccccc1 | >57 | 0.7% |
| COC(=O)CN(c1ccc(C)cc1)S(=O)(=O)c1ccc2c(c1)n(C)c(=O)c(=O)n2C | >57 | 9.7% |
| O=C(CN1CCN(S(=O)(=O)c2ccc(Cl)cc2)CC1)Nc1ccc2c(c1)OCO2 | >57 | -2.0% |
| Cc1ccc(C(C(=O)NC(C)(C)C)N(C(=O)c2csnn2)c2cccc(F)c2)o1 (stereo not given) | >57 | 15.7% |
| COc1ccc(-c2noc(CSc3nnc(CCc4ccccc4)n3-c3ccccc3)n2)cc1OC | >57 | 0.3% |
| O=S(=O)(Nc1ccc(C(F)(F)F)cc1)c1cnc[nH]1 | >57 | 3.5% |
| Cc1ccc2ccc(S(=O)(=O)n3nc(C)cc3C)cc2c1 | / | -20.7% |
| CCCC(=O)N1CCN(c2ccc(NC(=O)c3ccccc3)cc2)CC1 | >57 | ? |
| COc1ccc(C(=O)N2CCCC(c3nc(-c4ccc(OC)c(OC)c4)no3)C2)c(OC)c1 (stereo not given) | >57 | -6.6% |
| O=C(NCCCN1CCOCC1)c1cc(-c2ccc(O)cc2)on1 | >57 | -6.1% |
| O=S(=O)(Cc1ccccc1)N1CCC(N2CCN(c3ccccc3)CC2)CC1 | / | -15.9% |
| CC(C)C(=O)N1CCN(c2ccccc2NC(=O)Cc2ccc(Cl)cc2)CC1 | >57 | -18.5% |
| Cc1cccc(OCCCC(=O)O)c1C | >57 | 14.3% |
| COc1ccc(OCC(=O)Nc2ccc3c(c2)nc(CCN2CCOCC2)n3C)cc1 | / | -1.5% |
| Cc1csc(OCc2ccc(C#N)cc2)n1 | >57 | -3.5% |
| CCOc1ccc2nc(NC3=NCN(CC4CCCO4)CN3)nc(C)c2c1 (stereo not given) | >57 | ? |
| COC(=O)N1CCC2(CCCN(Cc3cc(C(F)(F)F)cc(C(F)(F)F)c3)C2)CC1 | >57 | -0.2% |
| c1ccc(Cn2nnc3c(N4CCCC4)ncnc32)cc1 | >57 | 5.1% |
| O=S(=O)(NC1CCCCC1)c1ccc(Cl)s1 | >57 | 5.6% |
| CCN1CCCC1Cn1c(-c2ccccc2)nc2c(N3CCOCC3)nc(C)nc21 (stereo not given) | / | -6.6% |
| Cn1cccc1Cc1nnc(SCC(N)=O)n1CCc1ccccc1 | >57 | -2.0% |
| COc1ccc(Cl)cc1C(=O)N1CCN=C1SC | >57 | -5.8% |
| O=C(COc1ccc(F)cc1Br)N1CCc2ccccc21 | >57 | -11.8% |
| CCN(CC)CCNC(=O)c1ccc2c(c1)ncn2C1CCCCC1 | >57 | -4.4% |

The list is partial; the hit share may differ from the screen's.
